Screens as filed in PubChem BioAssay.
VDR inhibitor = vitamin D3 receptor (human) inhibition. P11473. VDR-SRC2-3 peptide fluorescence polarization, 2 h. Potency, µM, without a hit: max response, negative = inhibition, usual class: inhibitors. hit rate 0.93% among 400,000. AID 504847; active = well fitted inhibition curve with a large enough effect; inconclusive = small, poorly fitted or top-dose-only effect, or another doubt; inactive = no such curve, though single readings can be large or run the other way; also: series mostly up to about 120 µM
Target sequence (P11473 whole entry, looked up): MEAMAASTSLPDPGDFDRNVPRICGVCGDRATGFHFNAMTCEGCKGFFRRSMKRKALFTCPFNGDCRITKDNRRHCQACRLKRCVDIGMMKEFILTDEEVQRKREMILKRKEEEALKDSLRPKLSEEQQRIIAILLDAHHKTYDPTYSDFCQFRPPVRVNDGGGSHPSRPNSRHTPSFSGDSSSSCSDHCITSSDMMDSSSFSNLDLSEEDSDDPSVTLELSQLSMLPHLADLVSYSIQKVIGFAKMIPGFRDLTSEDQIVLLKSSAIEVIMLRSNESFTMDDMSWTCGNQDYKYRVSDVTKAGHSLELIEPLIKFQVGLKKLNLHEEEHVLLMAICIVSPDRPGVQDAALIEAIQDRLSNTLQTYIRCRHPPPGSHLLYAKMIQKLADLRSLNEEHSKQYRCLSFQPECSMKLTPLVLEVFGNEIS
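Fluorescence polarization assay measuring small-molecule disruption of VDR binding to the coregulator peptide SRC2-3. Compounds were pin-transferred (23 nl) into the reagent mix and incubated 2 h at room temperature before reading.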
* = called active by the depositor; u = inconclusive. % is scaled to controls: 0 for no effect and ±100 for the full control effect; potency is read from the fitted curve at half-maximal effect.

molecule	VDR inhibitor
Cn1c(=O)c(/C=C/c2ccc(F)cc2)nc2ccccc21	-18%
CCOC(=O)C1CCN(C2=NC(=O)/C(=C/c3ccc(OC)c(OC)c3)S2)CC1	-8%
CCN1CCN(c2ncc(C(=O)Nc3cc(Cl)ccc3OC)c3ccccc23)CC1	13%
Cc1cccc(-c2nc3c4ccccc4nc(NCc4ccc(Cl)cc4)n3n2)c1	-9%
COc1ccc(CC(=O)Nc2ccccc2C(=O)N2CCOCC2)cc1	-6%
Cc1cccn2c(CN(C)CC3CCCCO3)c(C(=O)N3CCCCC3)nc12 (stereo not given)	11%
CC(C)=C(NC(=O)c1ccccc1)C(=O)NCCCC(=O)O	-3%
COc1ccc(C(=O)N/N=C/c2cccc3cccnc23)cc1	10%

Next part
molecule	VDR inhibitor
C[C@@H](OC(=O)N1CCCCC1)[C@H]1O[C@]2(C)CCCC[C@H]1O2	-21%
CCOC(=O)c1c(NC(=O)CS(=O)(=O)c2ccc(C)cc2)sc2c1CCC(C)C2 (stereo not given)	4%
CCOC(=O)c1cccc(P(C)(C)=O)c1	15%
COc1cc(-c2nc3cnccc3n2C)cc(OC)c1OC	2%
Cc1ccc(NC2=CC(=O)c3sc(C)nc3C2=O)cc1	-14%
CCOC(=O)c1ccccc1NC(=O)Cc1c(C(=O)O)c(C)cn1C	-5%
O=C(NNc1cccc(Cl)c1)c1cccnc1Cl	-4%
CCc1ccc(OCC2c3cc(OC)c(OC)cc3CCN2C(=O)c2ccc(S(=O)(=O)N3CCCC3)cc2)cc1 (stereo not given)	-5%

Additional results follow:
molecule	VDR inhibitor
CC1CCN(C(=O)CCc2ccc(S(=O)(=O)NC(C)(C)C)cc2)CC1	9%
Cc1cc(NS(=O)(=O)c2ccc(NC(=O)c3ccc(Cl)cc3[N+](=O)[O-])cc2)no1	16%
Cc1occc1C(=O)Nc1cccnc1	8%
COCCCN(CCNC(=O)c1ccc(NC2=NC3CS(=O)(=O)CC3S2)cc1)Cc1ccco1 (stereo not given)	5%
O=C(COc1ccc([N+](=O)[O-])cc1)N(C1CCCCC1)C1CCS(=O)(=O)C1 (stereo not given)	-10%
O=C(N/N=C/c1ccccc1)c1[nH]ncc1Br	8%
CCOc1cc(/C=C2\SC(=N)N(c3nonc3N)C2=O)ccc1OCCN1CCOCC1	-8%
COc1ccc(/C=C(\NC(=O)c2ccccc2)C(=O)N2CCCCC2)cc1OC	5%

3 compounds drawn at random from those above, as already listed:
molecule	VDR inhibitor
O=C(COc1ccc([N+](=O)[O-])cc1)N(C1CCCCC1)C1CCS(=O)(=O)C1 (stereo not given)	-10%
CC1CCN(C(=O)CCc2ccc(S(=O)(=O)NC(C)(C)C)cc2)CC1	9%
O=C(N/N=C/c1ccccc1)c1[nH]ncc1Br	8%

Following part.
molecule	VDR inhibitor
CC(C)(C)[C@@H]1COC(=O)[C@H](Cc2ccc(F)cc2)C/C=C\C[C@@H](CC(=O)N(CCO)Cc2ccccc2)C(=O)N1	6%
O=C(CCCc1c[nH]c2ccccc12)NCc1cccs1	-17%
Cc1ccc(S(=O)(=O)N(C)Cc2nc(-c3ccccn3)no2)cc1	3%
CCC(=O)N(C)/C=C1\Sc2ccccc2C1=O	0%
CC(=O)NC1(C(F)(F)F)NC(=O)N(CCc2ccccc2)C1=O (stereo not given)	-21%
O=C(CCCN1C(=O)/C(=C\c2ccccc2)SC1=S)Nc1ccc(C(=O)O)cc1	u
O=S(=O)(Nc1ccc(-c2ccc(N3CCCCCC3)nn2)cc1)c1cccc(C(F)(F)F)c1	10%
Cc1ccccc1Cn1c2ccccc2c2cnn(CC(=O)NCCCN3CCN(C)CC3)c(=O)c21	-8%

(cont.)
molecule	VDR inhibitor
CC(C)COc1cccc(C(=O)Nc2ccc(-c3nc4ncccc4o3)cc2)c1	-22%
Cc1onc(C(=O)Nc2cccc(C(F)(F)F)c2)c1[N+](=O)[O-]	-6%
O=C(Nc1ccccc1)c1cccc(N2C(=O)C3C4C=CC(C5CC45)C3C2=O)c1 (stereo not given)	3%
CCOc1ccc(NC(=O)CNC(=O)c2ccc([N+](=O)[O-])cc2)cc1	-12%
C=CCNC(=O)c1ccc(NC(=O)C2=CSCCO2)cc1	-6%
Cc1ccccc1NC(c1cccc(Cl)c1)c1nnnn1C1CCCCC1 (stereo not given)	-5%
CCOC(=O)C1C(=O)C=C(C)C(C(=O)OCC)C1c1cccc([N+](=O)[O-])c1 (stereo not given)	-14%
COc1cc(OC)cc(-c2nc3ccccc3c(=O)n2OC(=O)c2ccc(C)c(C)c2)c1	9%

In another format: entries from further up
> CCOC(=O)c1cccc(P(C)(C)=O)c1
  VDR inhibitor: 15%

> COc1cc(-c2nc3cnccc3n2C)cc(OC)c1OC
  VDR inhibitor: 2%

(list continues)
molecule	VDR inhibitor
C/C(=N\NC(=O)OC(C)(C)C)c1cccc([N+](=O)[O-])c1	-8%
CC(=O)Oc1ccccc1C(=O)Oc1ccc(/C=N/n2cnnc2)cc1	5%
O=C1CC(C(=O)O)(c2ccccc2)c2cccc(F)c21 (stereo not given)	-9%
O=C(NCc1nc(-c2ccc(C(F)(F)F)cc2)no1)c1cccs1	-14%
COC(=O)c1ccc2c(=O)n(CCCCCC(=O)N3CCN(c4cccc(C)c4C)CC3)c(=O)[nH]c2c1	17%
C/C(=C\C(=O)c1ccc(Br)cc1)NNC(=O)c1ccc(O)cc1	-13%
Cc1ccc(C(=O)N2CCC(C(=O)c3c(C)cc(C)cc3C)CC2)cc1	2%
Oc1ccc2c(c1)oc1cc(O)ccc12	-1%

Among those listed so far, these contain a Cl atom.
molecule	VDR inhibitor
CCN1CCN(c2ncc(C(=O)Nc3cc(Cl)ccc3OC)c3ccccc23)CC1	13%
Cc1cccc(-c2nc3c4ccccc4nc(NCc4ccc(Cl)cc4)n3n2)c1	-9%
O=C(NNc1cccc(Cl)c1)c1cccnc1Cl	-4%
Cc1cc(NS(=O)(=O)c2ccc(NC(=O)c3ccc(Cl)cc3[N+](=O)[O-])cc2)no1	16%
Cc1ccccc1NC(c1cccc(Cl)c1)c1nnnn1C1CCCCC1 (stereo not given)	-5%

Continued:
molecule	VDR inhibitor
O=C(CSc1ncnc2nc[nH]c12)N1CCOCC1	19%
CCCCOC(=O)C1=C(C)Nc2ncnn2C1c1ccc(OC)c(OC)c1 (stereo not given)	10%
O=C(O)c1ccc(/C=C/C(=O)c2ccc3c(c2)OCCCO3)cc1	u
COc1ccccc1NC(=O)CSc1nnc(C)o1	-5%
COc1ccccc1N(C)S(=O)(=O)c1ccc(C(=O)NNC(=O)c2ccccc2O)cc1	-9%
COc1ccc(NC(=O)CN2CCN(c3nc(-c4ccc(F)cc4)cs3)CC2)c(OC)c1	-18%
CCC(C)c1ccc(S(=O)(=O)Nc2cccnc2)cc1 (stereo not given)	9%
COc1ccc(NC(=O)c2ccccc2N2C(=O)C3C4C=CC(C5CC45)C3C2=O)c(OC)c1 (stereo not given)	-13%

(list continues)
molecule	VDR inhibitor
CCOC(=O)c1ccc(Nc2nc3ccc(C(=O)c4ccccc4)cc3n3c(C)nnc23)cc1	5%
FC(F)(F)c1cccc(N2CCN(CC3CC4C=CC3C4)CC2)c1 (stereo not given)	1%
O=C(CC1Sc2ccccc2NC1=O)NCc1ccccc1 (stereo not given)	-3%
Clc1ccc(SCCCCn2cncn2)cc1	25%
O=C1CCC(/C=C/c2ccccc2)=NN1Cc1ccccc1	-3%
Cc1cc(NC(=O)C2CC2)ccc1NC(=O)c1cccs1	23%
COC(=O)Cn1ccc(-c2ccc(Cl)cc2)c(C#N)c1=O	1%
O=C(CSc1nnc(-c2ccccc2F)n1C1CC1)Nc1ccc2[nH]c(=O)[nH]c2c1	2%

Additional records:
molecule	VDR inhibitor
CC(C)NC(=O)COc1coc(CN2CCN(c3cccc(Cl)c3)CC2)cc1=O	18%
COc1ccc(N(C)S(=O)(=O)c2cccc(C(=O)NC3CCCC3)c2)cc1	-5%
N=c1c(C(=O)NCCc2ccccc2)cc2c(=O)n3ccccc3nc2n1CC1CCCO1 (stereo not given)	7%
CCOc1ccc(CCNC(=O)c2cc3c(=O)oc4ccc(C)cc4c3s2)cc1OCC	2%
Cc1cccc(CC2C(=O)Nc3ccccc32)c1 (stereo not given)	6%
CN(C)c1ccc(NC(=O)CSCc2nc3c(nnn3Cc3ccc(F)cc3)c(=O)[nH]2)cc1	-16%
Cc1cc(C)c(C(=O)OCCNC(=O)c2cccnc2)cc1C	9%
CCOC(=O)C1=C(N)n2c(s/c(=C\c3cccnc3)c2=O)=C(C#N)C1c1cccnc1 (stereo not given)	0%

Going on with the list:
molecule	VDR inhibitor
CCCCN1C[C@H](Cc2ccccc2)[C@@H](CC(=O)Nc2ccccc2)C1=O	2%
COc1ccc(CNS(=O)(=O)c2ccc(-n3cnnn3)c(OC)c2)cc1	-11%
O=C(CN1CCN(S(=O)(=O)N2CCCCCC2)CC1)Nc1cc(Cl)ccc1Cl	3%
COc1cccc(CNC(=O)c2cc(COc3c(F)cccc3F)on2)c1	-11%
N#Cc1nc(Cc2ccccc2)oc1N1CCCC1	-8%
Cc1ccc(NC(=O)C2CCN(c3nn4cc(-c5ccc(C)cc5)nc4s3)CC2)cc1	7%
O=C(COc1ccc(-n2ccnc2)cc1)Nc1cccc(Cl)c1	-6%
CCOc1ccc(C(=O)NCc2ccco2)cc1	17%

Next records follow.
molecule	VDR inhibitor
CCN1CCN(CC(=O)NC2CCCCC2)C(=O)C1=O	-12%
CCOC(=O)C1=C(N)n2c(s/c(=C\c3ccco3)c2=O)=C(C(=O)OC(C)C)C1c1ccco1 (stereo not given)	28%
CCOC(=O)C1CCCN(S(=O)(=O)c2ccc3c(c2)oc(=O)n3C)C1 (stereo not given)	1%
COc1cccc(CN2CCN(C(=O)c3cccc4ccccc34)CC2)c1OC	-9%
O=C(Nc1cccc(C(F)(F)F)c1)C1C2CC3OC(=O)C1C3C2 (stereo not given)	16%
CCn1cc(SCC(=O)N2CCOCC2)c2ccccc21	2%
CC(Oc1ccccc1)C(=O)Nc1nnc(S(=O)(=O)N(C)c2ccccc2)s1 (stereo not given)	2%
Cc1cc(NC(=O)C2CCCN(S(=O)(=O)c3c(C)noc3C)C2)n[nH]1 (stereo not given)	-16%

Carrying on:
molecule	VDR inhibitor
Cc1cc(C(=O)N2CCN(c3ccccc3F)CC2)c2c(C)nn(-c3ccccc3)c2n1	6%
Nc1c(-c2nc(-c3ccncc3)no2)nnn1CC(=O)Nc1ccccc1	13%
Clc1ccc2c(c1)[C@H]1OCC[C@H]1[C@@H](c1ccco1)N2	-11%
Cc1ccc(NC(=O)c2cccc(S(=O)(=O)N(C)c3ccccc3)c2)cc1S(=O)(=O)N1CCOCC1	u
NS(=O)(=O)c1ccc(Sc2ccc3ccccc3c2)nc1	-11%
Cc1ccc(C(=O)Nc2ccccc2C(=O)N2CCCCC2C)cc1 (stereo not given)	7%
CCOC(=O)N1CCC(NS(=O)(=O)c2cc3c(cc2Br)CCN3C(=O)CC)CC1	7%
CCCCN(CCCC)Cc1ccc(C(=O)NNC(=O)Nc2ccc(F)cc2)o1	13%

(list continues)
molecule	VDR inhibitor
CCC(=O)N1CCc2cc(S(=O)(=O)CCC(=O)NCc3ccccc3Cl)ccc21	-23%
COc1ccccc1C(=O)NCc1ccco1	-5%
CCC(=O)NNC(=O)Cc1c(C)n(C(=O)c2ccc(Cl)cc2)c2ccc(OC)cc12	12%
CN(C)c1ncnc2c1ncn2C1CCCO1 (stereo not given)	15%
COc1ccccc1NC(=O)c1cc(Br)ccc1Cl	14%
NC(=O)[C@H]1O[C@@H](O)[C@H](O)[C@@H](O)[C@@H]1O	1%
COc1ccc(S(=O)(=O)NCc2ccccc2)cc1	8%
CC1CCN(C(=O)CN2CCSc3ccc(S(=O)(=O)N(C)C)cc32)CC1	7%

Carrying on:
molecule	VDR inhibitor
O=C(c1cc(-c2cccs2)nn1-c1ccccc1)N1CCN(S(=O)(=O)c2ccccc2)CC1	25%
Cc1ccc2c(c1)C(c1ccccc1)N(C(=O)c1ccccc1[N+](=O)[O-])CC(=O)N2 (stereo not given)	7%
COc1cc(OC)cc(C(=O)N[C@H](C(=O)OCC(=O)Nc2ccc(OC)c(OC)c2)C(C)C)c1	0%
Cc1ccc(C(=O)NNC(=O)C2CCN(c3nccc(C)n3)CC2)cc1	16%
Cc1ccc(C)c(CSc2nnc3[nH]c(=O)cc(-c4ccccc4)n23)c1	3%
COc1ccc(CCN(C)C(=O)c2cccc(S(=O)(=O)N3CCN(c4ccc(F)cc4)CC3)c2)cc1OC	5%
CCc1ccc(NC(=O)CCc2nc3sc4c(c3c(=O)[nH]2)CCCC4)cc1	-1%
CCCn1c(CN2CCN(C(=O)OCC)CC2)nc2cc(NC(=O)CC)ccc21	-22%

The list goes on:
molecule	VDR inhibitor
CC(C)COc1ccc2[nH]c3c(c2c1)CCCC3=O	5%
CC(=O)OCC#CCSc1nnc(-c2cccc(Br)c2)o1	-16%
COc1ccc(/C(C)=N/NC(=S)NCc2ccco2)cc1	-3%
Cc1ccccc1-c1nc(CN2CCC(C(=O)NCCCN3CCOCC3)CC2)c(C)o1	-17%
COc1cc(C2N(c3ccc(Cl)cc3)C(=O)C3CCCN32)cc(OC)c1OC (stereo not given)	-3%
CCOC(=O)c1ccc(N=C2SC(C(=O)Nc3ccccc3)CC(=O)N2C)cc1 (stereo not given)	6%
COc1ccccc1N1CCN(C(=O)c2cc(C3CC3)on2)CC1	1%
O=C(C1CCCO1)N1CCN(c2c3c(nc4cc(-c5ccc(F)cc5)nn24)CCC3)CC1 (stereo not given)	-5%

The list is partial; rates above refer to the full screens.
